Screening results from PubChem.
D2 agonist: agonists of human D2 dopamine receptor (beta-arrestin). P14416. DiscoveRx PathHunter D2 beta-arrestin, luminescence, 90 min; 100% = 57 uM dopamine signal. activation, % (concentration not given with the values). hit rate 0.084% among 360,000. AID 624465; in the data active = activation above about 40%; inconclusive = about 15% to 40%; inactive = below about 15%; further: compound concentration not given in the record; the text of the record calls up to 30% inactive
Target sequence (P14416 whole entry, looked up): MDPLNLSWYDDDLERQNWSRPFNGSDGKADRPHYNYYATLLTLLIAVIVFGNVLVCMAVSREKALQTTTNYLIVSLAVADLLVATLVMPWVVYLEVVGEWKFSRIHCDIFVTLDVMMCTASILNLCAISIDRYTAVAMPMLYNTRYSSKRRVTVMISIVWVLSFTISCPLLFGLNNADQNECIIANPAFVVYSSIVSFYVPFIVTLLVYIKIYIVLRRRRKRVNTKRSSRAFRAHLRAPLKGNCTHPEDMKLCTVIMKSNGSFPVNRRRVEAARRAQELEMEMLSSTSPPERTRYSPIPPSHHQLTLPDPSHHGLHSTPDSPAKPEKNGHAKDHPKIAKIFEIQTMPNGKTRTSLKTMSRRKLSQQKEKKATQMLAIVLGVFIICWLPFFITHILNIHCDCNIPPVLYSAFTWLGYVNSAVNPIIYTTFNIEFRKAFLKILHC
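Agonist mode: compounds alone added to overnight-plated D2 PathHunter cells for 90 min at 37 C, with 57 uM final dopamine (EC100) defining full response. Beta-arrestin recruitment detected by chemiluminescent reagent, read after 1 h at ambient temperature.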
Six1-Eya2 inh: Six1/Eya2 interaction inhibition; Q15475+O00167; AlphaScreen GST-Six1/His-Eya2 binding, biochemical; hits give low values; control for the full effect not named in the record; activity change, % (test concentration not listed); hit rate 0.56% among 360,000; AID 651725; in the data active = activity change below about -65%; inconclusive = about -30% to -65%; inactive = above about -30%; further: on the % scale 0 is the no-effect control and ±100 the full control effect; compound concentration not given in the record
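Six1/Eya2 binding was read as AlphaScreen signal after compounds were pinned into GST-Six1 plus His-tagged Eya2 (5X stock 250/500 nM) in pH 8.0 Tris/NaCl/TCEP buffer, beads added, then incubated 1 h, 37 C, dark.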
TRPML1 blocker: blocks the human TRPML1 channel; Q9GZU1; TRPML1-inducible cells, Ca2+ dye fluorescence, FDSS; hits give low values; inhibition of EC80 agonist-evoked calcium signal; activity change, negative = inhibition, % (test concentration not listed); hit rate 0.02% among 390,000; in the data active means activity change below about -50%; inconclusive means about -30% to -50%; inactive means above about -30%;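 further: stimulus is agonist 54-4 at its EC80 concentration; on the % scale 0 is the no-effect control and ±100 the full control effect; compound concentration not given in the record; the text of the record puts the active cut at -80%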
Target sequence (Q9GZU1 whole entry, looked up): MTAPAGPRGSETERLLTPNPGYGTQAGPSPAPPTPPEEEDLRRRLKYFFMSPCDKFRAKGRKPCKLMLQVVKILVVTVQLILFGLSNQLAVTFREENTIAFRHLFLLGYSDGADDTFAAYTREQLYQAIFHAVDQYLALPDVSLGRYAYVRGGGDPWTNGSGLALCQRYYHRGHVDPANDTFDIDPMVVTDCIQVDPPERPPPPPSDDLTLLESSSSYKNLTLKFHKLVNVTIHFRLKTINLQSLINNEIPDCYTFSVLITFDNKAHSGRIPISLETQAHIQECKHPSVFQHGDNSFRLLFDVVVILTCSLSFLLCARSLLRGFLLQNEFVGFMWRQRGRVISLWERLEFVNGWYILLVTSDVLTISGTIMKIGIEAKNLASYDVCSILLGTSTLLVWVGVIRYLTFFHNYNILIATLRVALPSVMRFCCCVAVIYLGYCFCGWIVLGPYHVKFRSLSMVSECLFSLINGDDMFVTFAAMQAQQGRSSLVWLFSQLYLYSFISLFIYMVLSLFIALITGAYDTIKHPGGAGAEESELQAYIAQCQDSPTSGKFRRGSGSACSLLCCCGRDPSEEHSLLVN
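Calcium fluorescence in TRPML1-DL cells induced overnight with Tet: a 110 s read after compound pin addition, then a 110 s antagonist read after challenge with 54-4 at 4 uM final (EC80).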
CtBP-E1A blk: blocks the CtBP interaction with E1A. hit rate 0.49% among 340,000. activity change, % (test concentration not listed). AlphaScreen GST-E1A/His-CtBP binding, 1536-well; hits give low values; control for the full effect not named in the record; in the data active means activity change below about -65%; inconclusive means about -30% to -65%; inactive means above about -30%; further: on the % scale 0 is the no-effect control and ±100 the full control effect; compound concentration not given in the record
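GST-E1A and His-tagged CtBP (125 nM each as 5X stock) were preincubated with pin-transferred compound for 2 h at 37 °C in the dark, then glutathione donor and nickel acceptor beads were added for 1 h before AlphaScreen reading.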
TRPML1 ag: activates the human TRPML1 channel | TRPML1-expressing cells, Ca2+ dye fluorescence, FDSS; host cell line not named in the record; reference of the full effect not given here | hit rate 0.12% among 410,000 | AID 624414 | activation, % (concentration not given with the values); in the data active = activation above about 50%; inconclusive = about 30% to 50%; inactive = below about 30%; further: 0% is about no effect; the text of the record puts the active cut at 80%
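In this qHTS format, compounds were pin-transferred onto Ca8-dye-loaded TRPML1-DL cells induced with Tet overnight, and intracellular Ca2+ fluorescence was recorded kinetically for 110 s after a 10 s baseline. A subsequent 4uM final 54-4 (EC80) addition followed by a second 110 s read served as the antagonist phase.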
PINK1 modulator: modulators of PINK1 expression. hit rate 0.2% among 410,000. Potency, µM (doses to about 76.6 µM), for inactives: top-dose activation (PINK1 increase), usual class: activators. AID 624263. PINK1 immunofluorescence, high-content cytometry, 24 h; active = well fitted activation curve with a large enough effect; inconclusive = small, poorly fitted or top-dose-only effect; inactive = flat fitted curve, though single readings scatter; cell line not stated here;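 further: potency means the concentration at half of the fitted maximal effect; % of control where 0% means no effect; nearly all actives have a fitted effect of over 65% in size; a mitochondrial uncoupler was the plate control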
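PINK1 protein level read as immunofluorescence by microplate cytometer in a fixed, stained stable cell line after 24 h exposure to five compound concentrations, with CCCP as control.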
* marks the source's active call; other numbers are inactive results; ? = inconclusive; · = no result given; [ ] = dose if it differs, or a comment.

SMILES | D2 agonist | Six1-Eya2 inh | TRPML1 blocker | CtBP-E1A blk | TRPML1 ag | PINK1 modulator
O=C(CN1CCN(C(=O)c2ccco2)CC1)Nc1cccc([N+](=O)[O-])c1 | -3.7 | 0.8 | 22.1 | 14.6 | -0.6 | -0.5%
Cc1cc(C)cc(C(=O)NCC(=O)NNC(=O)CSc2ccccc2F)c1 | 6.3 | 1.6 | -14.3 | -0.9 | 1.1 | 0.9%
Cc1ccc(C(=O)NCC(=O)Nc2ccc3c(c2)CCC3)cc1 | -2.6 | 0.0 | 29.7 | -1.0 | 0.5 | 0.5%
COc1ccc(OS(=O)(=O)c2c(C)noc2C)cc1 | -2.0 | -3.9 | 5.8 | 5.9 | 0.3 | 1.5%
COc1ccc(Nc2nc3ccccc3s2)cc1 | -1.6 | -2.2 | 24.7 | 5.2 | 0.2 | 2.9%
O=S(=O)(c1cccc(F)c1)N1CCN(c2ncnc3scc(-c4ccc(F)cc4)c23)CC1 | 1.7 | -13.7 | 3.1 | -3.0 | 0.7 | 2.2%
N#Cc1ccccc1OCC(=O)NC(=O)NCc1ccccc1 | 1.9 | 3.6 | 10.3 | 4.1 | -0.2 | 8.6%
NC(=O)C1(N2CCCCC2)CCN(C(=O)CCCn2c(=O)[nH]c3ccsc3c2=O)CC1 | -0.8 | 5.2 | -4.9 | 3.8 | -0.1 | 0.0%
CC(=NCCc1ccccc1)C1=C(O)CCC1=O | 3.4 | 2.7 | 6.3 | -11.4 | 0.5 | ?
CC(C)C(NS(=O)(=O)c1cccs1)C(=O)NCc1ccccc1 (stereo not drawn) | -3.1 | -0.2 | -8.4 | 18.0 | -0.5 | 0.7%
O=C(NC1CCCC1)C(c1ccc(F)cc1)N(Cc1ccccc1Cl)C(=O)CCl (stereo not drawn) | -10.5 | 2.3 | -4.7 | -6.7 | -1.0 | -2.0%
CSc1ccccc1NC(=O)C1C2CCC(C2)C1C(=O)O (stereo not drawn) | -3.6 | -1.1 | -11.6 | 2.5 | -0.9 | 3.2%
CCn1c(=O)c2sccc2n2c(CCCC(=O)NCc3cccnc3)nnc12 | -3.2 | -5.4 | -0.4 | · | -0.1 | 0.6%
COc1ccc(C2c3ccc4ccccc4c3Oc3ncn(CCN(C)C)c(=N)c32)cc1 (stereo not drawn) | -1.3 | -6.1 | -13.4 | -9.1 | -0.4 | -1.8%
COc1ccc(S(=O)(=O)N2CCN(C(=O)c3ccccc3Cc3ccccc3)CC2)cc1OC | -2.9 | 1.8 | 4.1 | 4.2 | -0.2 | -0.5%

Reformatted as labelled records: entries from further up.
SMILES: COc1ccc(C2c3ccc4ccccc4c3Oc3ncn(CCN(C)C)c(=N)c32)cc1 (stereo not drawn)
- D2 agonist: -1.3
- Six1-Eya2 inh: -6.1
- TRPML1 blocker: -13.4
- CtBP-E1A blk: -9.1
- TRPML1 ag: -0.4
- PINK1 modulator: -1.8%
SMILES: O=C(CN1CCN(C(=O)c2ccco2)CC1)Nc1cccc([N+](=O)[O-])c1
- D2 agonist: -3.7
- Six1-Eya2 inh: 0.8
- TRPML1 blocker: 22.1
- CtBP-E1A blk: 14.6
- TRPML1 ag: -0.6
- PINK1 modulator: -0.5%

(more compounds)
SMILES | D2 agonist | Six1-Eya2 inh | TRPML1 blocker | CtBP-E1A blk | TRPML1 ag | PINK1 modulator
O=C(/C=C/c1ccccc1)N1CCN(Cc2cc(=O)n3nc(-c4ccccc4F)sc3n2)CC1 | · | · | 1.5 | · | -0.7 | 0.4%
CC(=O)c1cccc(NC(=O)N2CCCC2C(=O)NCc2ccc(F)cc2)c1 (stereo not drawn) | -5.9 | -1.5 | 3.4 | 1.5 | -0.4 | 0.4%
CCOc1ccc(CN2CCNC(=O)C2CC(=O)N(C)CC2CCOCC2)cc1 (stereo not drawn) | -4.9 | 7.7 | 5.8 | 1.7 | -0.4 | 0.0%
O=C(NNC(=O)c1cccc(S(=O)(=O)Nc2ccc(Cl)cc2)c1)c1ccc(=O)[nH]c1 | -3.4 | -1.1 | 11.1 | 1.3 | 1.0 | 1.2%
COc1ccc(-c2nc(SCC(=O)N3CCCC3)n[nH]2)cc1 | -2.3 | -3.5 | -5.1 | 3.6 | -0.5 | 0.5%
CCOC(=O)CNC(=O)CSc1nnc(-c2ccccc2OC)n1CC | -2.7 | 13.1 | -13.3 | 4.3 | 0.8 | -2.1%
CC1=C(C(=O)OCC2CCCO2)C(c2ccsc2)C2=C(CC(C)(C)CC2=O)N1 (stereo not drawn) | -8.8 | 8.9 | -9.5 | · | 0.8 | 0.0%
CCOc1ccccc1-c1nnc(CS(=O)(=O)c2ccccc2)o1 | 1.2 | -0.4 | 29.6 | -15.0 | 2.7 | -1.6%
COc1ccc(Cc2nc3ccc(C(=O)N(C)Cc4nccs4)cc3o2)cc1OC | 3.6 | 0.5 | 5.9 | 2.8 | 0.3 | 0.6%
Cc1ccc(S(=O)(=O)NC(=O)C2(C)CCN2C(=O)Cc2cccs2)cc1 (stereo not drawn) | -3.7 | 16.6 | · | -22.7 | -0.5 | 1.8%
O=C(CO/N=C1\CCCc2nonc21)Nc1ccc(Br)cc1 | -3.6 | -2.3 | -14.0 | 0.4 | -0.6 | 1.5%
CCNc1nc(OCCNS(=O)(=O)c2cc(C)ccc2C)nc(N(C)C)n1 | -2.9 | 7.4 | 15.0 | 6.6 | -0.2 | -0.3%
O=C(COC(=O)c1ccccc1OCc1ccccc1Cl)NC1CC1 | -4.2 | 7.6 | -1.5 | 13.4 | -0.5 | 5.0%
CCn1cc(C(=O)NN)c(=O)c2cc(F)c(NC3CCCCC3)cc21 | 0.3 | -5.6 | -6.3 | -6.5 | 1.5 | -1.0%
COC(=O)c1sccc1NC(=S)N1CCC(C)CC1 | -4.2 | 8.7 | 14.0 | 4.4 | 1.5 | 1.4%
CC(C)Oc1ccc(N2CC(C(=O)Nc3ccccn3)CC2=O)cc1 (stereo not drawn) | -1.7 | 3.7 | -20.2 | · | 2.6 | -0.2%
CN(C)c1ccc(N=Cc2nc(-c3ccccc3)oc2O)cc1 | -0.9 | -6.2 | 13.8 | 2.8 | 16.6 | 25.7%
Cc1cc2oc(=O)c(CC(=O)NCCc3ccccc3)c(C)c2c2occ(C(C)(C)C)c12 | · | · | 37.6 | · | 2.1 | 3.6%
Cc1cc(C(=O)NNC(=O)[C@H](C)NC(=O)c2ccc(Br)cc2)c(C)o1 | 0.0 | -0.3 | -10.5 | 0.0 | -0.2 | 0.0%
COc1ccc(CC(=O)Nc2nccs2)cc1S(=O)(=O)N1CCOCC1 | -1.8 | -0.2 | 13.7 | 5.0 | 4.9 | 0.6%
COc1ccc(NC(=O)NC(C)(C(F)(F)F)C(F)(F)F)cc1 | -1.5 | -0.8 | -10.1 | -7.0 | -0.1 | 4.3%
COc1ccc(-c2[nH]ncc2CN2CCC(N3CCSCC3)CC2)c(F)c1 | -1.2 | 1.9 | -8.7 | 7.3 | -0.3 | -0.4%
O=C(COc1ccc([N+](=O)[O-])cc1)Nc1ccc(C(=O)Nc2ccccc2C(=O)O)cc1 | 0.1 | -0.1 | 17.9 | · | 0.0 | -1.2%
O=C(O)c1ccc2c(=O)n3c(nc2c1)/C(=C/c1ccc(Cl)cc1Cl)CC3 | -3.5 | ? | 5.5 | · | 0.7 | -0.1%
Cc1ccccc1S(=O)(=O)c1c(C)cc(C)n(C(C)C)c1=O | -6.0 | -7.9 | -21.2 | 11.5 | 3.4 | -0.1%
COc1cccc(/C=C/C(=O)NNC(=O)CCN2CCN(Cc3ccccc3)CC2)c1 | -4.5 | -5.4 | -15.6 | 2.3 | -0.5 | 3.6%
CCOC(=O)N1CCN(Cc2ccc(OCC(O)CN3CCCCC3)cc2)CC1 (stereo not drawn) | ? | 2.4 | 14.8 | 9.1 | 0.0 | 5.9%
Cc1cccc(-c2cc(N)n(-c3ccccc3)n2)c1 | -0.1 | 9.8 | 1.1 | 10.0 | 1.2 | 0.1%
COc1ccc(NC(=O)c2nnn(Cc3ccc(SC)cc3)c2N)c(OC)c1 | 1.8 | -6.8 | 15.0 | -1.5 | 4.5 | 14.1%
OCc1nc2ccccc2n1CCc1ccccc1 | -5.2 | 0.6 | 2.6 | -8.0 | 0.8 | 0.8%
Cc1c(C(=O)Nc2ccccn2)oc2ccccc12 | 1.8 | 5.9 | -7.6 | 5.7 | 0.8 | 2.5%[38.3 µM]
CCCCc1nnc(NC(=O)CS(=O)(=O)Cc2ccccc2)s1 | 1.9 | 4.7 | -0.1 | 2.9 | -0.2 | 5.7%[38.3 µM]
CC(C)(C)c1ccc(/C=C/C(=O)N2CCCCC2)cc1 | -5.4 | 10.8 | -9.1 | · | 1.2 | 4.5%
COc1ccc(OC)c(-c2nn(-c3ccccc3)cc2C(=O)NCC(c2ccco2)N2CCCC2)c1 (stereo not drawn) | -3.3 | -16.1 | -18.6 | · | -1.0 | 1.1%
Cc1ccc(CNC(=O)COC(=O)[C@@H]2CC(O)CN2S(=O)(=O)c2ccc3c(c2)OCCO3)cc1 (stereo partly drawn) | 0.6 | 4.6 | -7.1 | -4.5 | 3.0 | -0.3%
CC1(C)CC(=O)C(C(=S)Nc2ccccc2)=C(NCCN2CCOCC2)C1 | -1.8 | 3.5 | 1.8 | 2.6 | 0.1 | ·
O=C(CSc1nc2ccccc2c(=O)n1-c1ccccc1)N1CCC1 | -3.7 | -6.1 | 2.5 | · | 2.2 | 2.3%
Cc1cc(=O)[nH]c(N/N=C/c2ccc(Cl)cc2Cl)n1 | -4.9 | 4.7 | -12.8 | · | 0.9 | 7.1%
Cn1c(CC(=O)Nc2ccc(Cl)cc2)nnc1SCC(=O)N1CCOCC1 | -0.7 | 0.6 | 8.8 | 6.6 | -0.2 | 1.1%
Cc1cc(N2C(=O)C(O)=C(C(=O)c3cccs3)C2c2cccc(Br)c2)no1 (stereo not drawn) | -5.8 | -9.1 | 43.6 | 1.8 | 2.8 | -0.8%
CN(c1ccc(F)cc1)S(=O)(=O)c1ccc(Cl)c(C(=O)OCC(=O)NC2CC2)c1 | 1.8 | 1.4 | 11.3 | 6.9 | 0.0 | -0.5%
COc1cccc(O)c1CN1CCC(C(=O)Nc2ccc(-c3cccc(C)c3)cc2)CC1 | -4.9 | -12.3 | 19.7 | -8.9 | 0.4 | -2.0%
Cc1c(C)c2ccc(OC(C)C(=O)NCCCN3CCOCC3)c(C)c2oc1=O (stereo not drawn) | 2.5 | -2.1 | 17.2 | 2.8 | -0.6 | -0.4%
COC(=O)c1[nH]c2cccc(OC)c2c1NC(=O)CCN1CCC(C)CC1 | -3.5 | 1.6 | 24.9 | 12.4 | -1.3 | 0.2%
CCOc1ccccc1N1CCN(C(=O)c2cc[n+]([O-])cc2)CC1 | -1.8 | 2.7 | 9.2 | 10.2 | 0.2 | 1.9%
CCC(=O)Nc1ccc2c(c1)ncn2CCc1ccccc1 | 7.4 | -2.6 | -7.3 | -1.6 | 1.6 | -1.9%
CCCCCOC(=O)C1C2C=CC3(CN(c4ccccc4C)C(=O)C13)O2 (stereo not drawn) | -1.4 | 0.4 | -6.0 | 2.5 | -0.7 | 0.8%
COc1ccccc1NS(=O)(=O)c1ccc2oc(SCC(=O)N3CCNC3=O)nc2c1 | 3.2 | -18.6 | 22.9 | -11.9 | 0.2 | -1.6%
N#Cc1ccccc1NC(=O)CNc1ccccc1N1CCCCC1 | -2.3 | -15.8 | 10.6 | -7.4 | 1.7 | 2.4%
